Rce1 inh – inhibitors of yeast Ras-converting enzyme | 290,000 tested, 0.27% active | yeast membranes, quenched prenylated peptide cleavage fluorescence | calls only;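 active = fall in fluorescence gain of 50% or more versus controls, with final raw signal at or below 3038400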;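 also: plate controls were neutral control wells for no effect and wells lacking membranes for full effect; tested at 10 µM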
Target sequence (Q03530 whole entry, looked up): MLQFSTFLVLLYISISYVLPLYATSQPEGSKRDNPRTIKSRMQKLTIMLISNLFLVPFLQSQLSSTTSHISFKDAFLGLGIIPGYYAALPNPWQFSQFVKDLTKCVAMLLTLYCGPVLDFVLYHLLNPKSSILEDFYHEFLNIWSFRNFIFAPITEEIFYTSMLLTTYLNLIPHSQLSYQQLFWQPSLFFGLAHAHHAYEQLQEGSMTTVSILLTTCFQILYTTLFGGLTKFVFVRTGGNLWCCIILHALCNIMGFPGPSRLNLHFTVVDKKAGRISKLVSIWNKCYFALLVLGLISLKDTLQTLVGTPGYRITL
PABP polyA inh – PABP-poly(A) binding inhibition; PABP-poly(A) RNA binding, fluorescence polarization; inhibition, % at 35 µM; 290,000 tested, 1% active;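 active = 50% or more with normal probe brightness, or confirmed in later tests; about a fifth of its hits are not listed in these tables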;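 also: calls also rest on retests at 20 µM and on dose response follow-up; controls were probe without protein and protein plus probe with vehicle; some compounds called inactive have numbers as strong as hits; many hits fall short of the cut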
Target sequence (P11940 whole entry, looked up): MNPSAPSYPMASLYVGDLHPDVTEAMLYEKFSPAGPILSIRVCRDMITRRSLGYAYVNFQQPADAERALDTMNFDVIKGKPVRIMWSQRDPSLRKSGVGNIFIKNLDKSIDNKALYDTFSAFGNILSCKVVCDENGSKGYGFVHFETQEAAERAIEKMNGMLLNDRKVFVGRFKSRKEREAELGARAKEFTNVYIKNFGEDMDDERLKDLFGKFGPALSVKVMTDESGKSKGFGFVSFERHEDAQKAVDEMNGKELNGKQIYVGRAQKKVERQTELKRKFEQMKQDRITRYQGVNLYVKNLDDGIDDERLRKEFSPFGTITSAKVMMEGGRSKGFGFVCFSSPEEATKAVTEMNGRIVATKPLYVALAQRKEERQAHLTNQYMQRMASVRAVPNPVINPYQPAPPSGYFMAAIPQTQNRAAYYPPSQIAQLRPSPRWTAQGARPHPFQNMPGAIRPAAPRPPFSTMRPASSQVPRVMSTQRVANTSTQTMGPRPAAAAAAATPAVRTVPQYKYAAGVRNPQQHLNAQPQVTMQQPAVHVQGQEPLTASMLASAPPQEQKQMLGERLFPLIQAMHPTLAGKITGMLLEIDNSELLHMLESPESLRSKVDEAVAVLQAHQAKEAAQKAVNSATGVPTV
CSC inhib – blocks cancer stem cells; cancer stem cell-like cells viability, luminescence; inhibition, % at 7.5 µM; 300,000 tested, 1.1% active;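 active = mean at 75% or more and at least half the replicates too; tested in HMLE shEcad cells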;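 also: 0% = median of negative and 100% = median of positive control wells; the first replicate is given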
MT1-MMP act inh – MT1-MMP (human) activation inhibition; P50281; HT1080 RFP-PRO-GFP cells, GFP/RFP ratio fluorescence, overnight; percent of plate control window, DMSO zero; GFP/RFP ratio change, % at 20 µM; 360,000 tested, 0.061% active; AID 651647;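 active = GFP/RFP ratio change of at least 30% with cell ATP level not reduced by more than half and red fluorescence within 50% of control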; also: strong numbers were not always called active
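Assay system – RFP-PRO-GFP reporter HT1080 cells · Compound dosing – single dose of 20 µM compound, 1% DMSO final · Incubation – overnight compound exposure at 37 °C · Measure – GFP/RFP fluorescence ratio · Benchmarks – DMSO wells and RFP-L50D-GFP cells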
HIV Env fusion – blocks HIV Env-driven cell-cell fusion; HeLa-JRFL Env/CEM21 cell fusion, luciferase; inhibition, % at 12.3 µM; 360,000 tested, 1.1% active; AID 651610;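 active = mean replicate inhibition score of at least 50 and every replicate individually at or above 50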;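 also: 0% = plate neutral controls and 100% = maraviroc near 300 nM; one replicate is shown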
UUG fidelity – modulators of start codon recognition fidelity in yeast. S. cerevisiae UUG-firefly luciferase reporter, luminescence/redox ratio. AID 602363. activity score, % at 18.7 µM. 350,000 tested, 0.13% active;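 active = replicate mean at a twofold rise or more, about +100% in these data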;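 also: firefly luciferase made from a UUG start codon reports start codon fidelity; reporter light over untreated wells divided by growth signal over untreated wells; some hits fall short of that in this replicate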
eIF4H FP inh – inhibitors of RNA binding by human eIF4H. Q15056. eIF4H fluorescence polarization binding assay. inhibition, % at 35 µM. 290,000 tested, 0.94% active. AID 2012;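 active = 50% or more with normal probe brightness, or confirmed in later tests; about a fifth of its hits are not listed in these tables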;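 also: calls also rest on retests at 20 µM and on dose response follow-up; 0% = protein and probe with vehicle and 100% = probe without protein; strong numbers were not always called active; many hits fall short of the cut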
MT1-MMP act inh RFP – further read-out of MT1-MMP act inh, marked with its call; RFP signal change, %; measured here: RFP expression control read;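 0 = vehicle wells; hits needed this value within 50% of zero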
The depositor's hits bear a star; i = inactive; . = not tested or not shown. Only part of the results is shown (hit frequency here may not be typical).

SMILES	Rce1 inh	PABP polyA inh	CSC inhib	MT1-MMP act inh	MT1-MMP act inh RFP	HIV Env fusion	UUG fidelity	eIF4H FP inh
Cc1ccc(C(=O)N2CC(C)OC(C)C2)cc1S(=O)(=O)N1CCCCC1 (configuration not stated)	.	.	-15	2	2	2	-4	.
COc1ccccc1NS(=O)(=O)c1cc(NC(=O)c2cc(F)c(F)c(F)c2F)ccc1N1CCOCC1	.	.	5	2	-2	-4	.	.
COCCCNC(=O)c1ccc2c(c1)CCN2S(C)(=O)=O	i	6	-1	-7	-1	-21	-12	4
Cc1noc(C)c1COc1ccccc1C(=O)NCCc1ccccc1	.	.	.	4	-1	-6	5	.
CCOC(=O)N1CCC(N2CC34C=CC(O3)C(C(=O)Nc3ccc(OCC)cc3)C4C2=O)CC1 (configuration not stated)	i	3	13	11	9	-15	-6	6
CCCCOC(=O)c1cc(=O)[nH]c2ccc(C)cc12	i	1	9	0	-2	-8	.	2
N=c1sccn1CC(=O)Nc1ccc2c(c1)CCC2	i	10	-5	-1	0	33	-2	11
COc1ccc(CNC(=O)COC(=O)Cc2ccc(Br)cc2)cc1	.	.	-17	-2	-1	-28	-13	.
COc1ccc(CN(CC(=O)NCc2ccccc2)C(=O)CCC(=O)Nc2ccccn2)cc1	i	-3	-4	-2	-1	1	0	-1
COc1cc(OC)c(OC)cc1CNCc1ccco1	i	0	6	-4	4	3	-17	16
Cc1ccc(-n2ncc3c(=O)n(CC(N)=O)cnc32)cc1	i	6	-11	4	1	-16	7	-1
CCNc1nc(NC(C)C)nc(N(C#N)CCOc2ccc(Cl)cc2Cl)n1	i	-13	64	-11	-12	16	-20	-4
CCc1ccc(CNC(=O)C2CCN(S(=O)(=O)N3CCC4(CC3)OCCO4)CC2)cc1	i	7	-1	-1	-2	16	.	4
COc1ccc(NC(=O)Nc2ccc3c(c2)C(=O)N([C@H](C)CO)C[C@H](C)[C@@H](CN(C)C(=O)Nc2ccc(OC)cc2)O3)cc1	.	.	.	6	6	11	-8	.
C/C(=N\OCC(=O)Nc1ccccc1C(=O)O)c1cccs1	i	-6	-11	1	-1	0	-8	-4
Cc1ccc(NS(=O)(=O)c2ccc(C(=O)NC3CCN(Cc4ccccc4)CC3)cc2)cc1	.	.	9	4	-28	8	3	.
O=C(O)CCCn1cc(NC(=O)COc2ccc(F)cc2)cn1	i	10	.	0	1	2	-16	-5
O=C(c1ccccc1)c1ccccc1N/C=C/c1nnnn1-c1ccccc1	i	-5	26	-2	-1	-3	.	0
O=C1c2ccccc2[C@@H]2CC(O)C(O)CCN12 (some centres not stated)	.	.	.	5	7	4	-4	.
O=C1C(Nc2ccccc2)=C2CCCC=C2N1c1ccccc1	i	2	10	-5	-2	6	.	16
CC1CC(C)CN(S(=O)(=O)c2cc3c4c(c2)C(C)C(=O)N4CCC3)C1 (configuration not stated)	i	.	-8	-1	2	0	-3	.
COCCOC(=O)c1[nH]c2c(c1C)C(=O)CC(c1ccc(OC)c(OC)c1)C2 (configuration not stated)	i	-6	1	-3	-20	17	-16	-11
CCN(CC)CCCNC(=O)Cn1ccc2ccccc2c1=O	i	-4	-4	-1	2	1	.	5
CCOc1ccc(CC(=O)NNC(=S)Nc2ccc(OC)c(OC)c2)cc1	i	-12	-2	-2	0	-2	.	4
C1=CC2C3C=CC(C3)C2C1 (configuration not stated)	.	.	-10	0	3	.	0	.
CC(=O)n1cc(C2C(=O)CC(C)(C)CC2=O)c2ccccc21	i	2	-6	-1	7	-22	-4	0
O=C1CCC(C(=O)OCc2cc(=O)oc3ccc4ccccc4c23)=NN1	i	4	-4	-9	-1	-26	-30	3
C/C(=N\NC(=O)Cn1cc([N+](=O)[O-])cn1)c1ccc(O)cc1	i	-4	-14	2	3	-5	.	-7
Cc1csc(N2CCCC2c2nc3cc(C(F)(F)F)ccc3n2CCOCCO)n1 (configuration not stated)	i	.	-6	-5	2	-2	6	.
CCOc1ccc(OCCC(=O)N(CCC2=CCCCC2)c2c(N)n(Cc3ccccc3)c(=O)[nH]c2=O)cc1	i	.	-2	-14	-15	-14	-7	.
COc1ccc(CCNC(=O)CC(=O)N/N=C/c2ccc(Br)cc2)cc1OC	i	-1	-19	-6	0	-5	-17	-5
CCOC(=O)c1sc2nc3n(c(=O)c2c1C)CCC(C)CC3 (configuration not stated)	i	-6	55	-2	-5	.	-7	1
COc1ccc(-n2nc(C(=O)NCC(=O)Nc3cc(OC)c(OC)c(OC)c3)c3ccccc3c2=O)cc1Cl	i	1	38	-11	-6	22	-2	-7
CC(C)(C)c1ccc(S(=O)(=O)NC(=O)C2(C)CCN2C(=O)C2(c3ccccc3)CC2)cc1 (configuration not stated)	.	.	.	-4	4	-1	10	.
CCOC(=O)C(NC(C)=O)(N1CCOCC1)C(F)(F)F (configuration not stated)	i	3	3	.	.	.	.	1
COc1ccc(NCC(=O)Nc2ccc(C#N)cc2)cc1Cl	i	4	-11	4	0	-51	-3	1
Oc1ccccc1N1CCN(C(=S)NCCc2ccccc2)CC1	i	3	-1	2	4	9	-31	5
CCS(=O)(=O)N1N=C(c2cccc(NS(C)(=O)=O)c2)CC1c1cccs1 (configuration not stated)	i	0	-14	-15	-1	14	-9	-10
COC(=O)[C@H](C)NC(=O)Nc1cccc(C(F)(F)F)c1	i	-7	.	-1	-2	.	-10	1
CN(CC(=O)Nc1cccc(F)c1)C(=O)CCNC(=O)c1ccco1	i	.	.	4	6	-8	.	.
COc1ccc(Oc2nc(C(F)(F)F)nc3ccccc23)cc1	i	6	4	4	-7	.	.	-13
Nc1cccc(NC(=O)CCC(=O)NCc2ccco2)c1	i	-7	-18	2	7	26	-29	2
COc1ccc(CCNC(=O)CSc2nc3[nH]ncc3c(=O)n2-c2ccc(C)c(Cl)c2)cc1OC	i	-10	.	2	0	0	.	12
COc1ccc(/C=C2\SC(=S)N(CCCC(=O)Nc3cccc(C(=O)O)c3)C2=O)cc1OC	i	11	-21	-25	1	-22	-16	37
O=C(C1CC1)N1CCc2cc(S(=O)(=O)N(CCO)Cc3ccccc3)ccc21	i	-15	3	6	0	.	-8	2
COc1ccc(N2CC(C(=O)Nc3ccc(F)cc3F)CC2=O)cc1 (configuration not stated)	i	-4	-14	2	-4	.	2	-12
CCCCN(C=O)c1c(CC)nc2c(OCc3ccc(C(F)(F)F)cc3)cccn12	.	.	.	-6	-14	-2	-18	.
Cc1cc(SCC(=O)c2ccc(Cl)cc2)nc(=O)[nH]1	i	.	3	-9	4	-34	-23	.
COc1ccc(C(C)(NC(C)=O)c2nc(-c3ccc(S(C)(=O)=O)cc3)cs2)cc1 (configuration not stated)	.	.	.	-8	9	-11	-13	.
COC(=O)/N=C(/Cc1ccc(OC)cc1)c1ccc(OC)cc1	i	8	2	-2	-1	4	-33	2
Cc1cc(-c2nc(C)c(-c3nnc(SCC(=O)Nc4ccc(Cl)cc4)n3C)s2)no1	i	-7	-13	-1	4	0	-16	0
CCc1cccc(C)c1NC(=O)CSc1nc2ccncc2[nH]1	i	4	-5	0	-2	-2	-4	5
Cc1ccc(C)c(N(CC(=O)NN=C2CCN(C)CC2)S(=O)(=O)c2ccccc2)c1	i	11	-14	1	1	.	.	-3
O=Cc1ccc(-c2ccc(F)cc2)o1	i	20	-3	-1	-3	-7	6	4
COc1ccccc1OP(=O)(O)Oc1ccccc1OC	i	-8	4	0	7	9	-9	-7
O=C(Cc1ccc(Cl)cc1)Nc1ccc(C(=O)N2CCCCC2)cc1	i	-3	2	2	-12	22	-3	0
CC1CCC(NC(=O)CNC(=O)c2cccs2)CC1 (configuration not stated)	i	-2	-1	1	-1	-27	-20	7
Cc1nc(-c2ccc(S(=O)(=O)N3CCN(c4ccccc4)CC3)cc2)co1	i	10	-14	-1	-3	-7	-18	-8
COc1c(C(=O)Nc2ccc(Br)cn2)ccc2ccccc12	i	-4	15	-1	-1	-118	-25	-2
Cc1cc(C)c(NS(=O)(=O)c2ccccc2)c(C)c1NS(=O)(=O)c1ccccc1	.	.	.	0	-2	-8	0	.

The list goes on; it opens with the 2 that closed the last part.
SMILES	Rce1 inh	PABP polyA inh	CSC inhib	MT1-MMP act inh	MT1-MMP act inh RFP	HIV Env fusion	UUG fidelity	eIF4H FP inh
COc1c(C(=O)Nc2ccc(Br)cn2)ccc2ccccc12	i	-4	15	-1	-1	-118	-25	-2
Cc1cc(C)c(NS(=O)(=O)c2ccccc2)c(C)c1NS(=O)(=O)c1ccccc1	.	.	.	0	-2	-8	0	.
CCSc1nnc(NC(=O)CCNS(=O)(=O)c2ccccc2F)s1	i	-7	-4	1	1	1	-12	-10
COc1cc2c(cc1OC)C(c1ccc(-c3cc(Cl)ccc3Cl)o1)=NCC2	i	-12	4	-16	-13	.	1	-8
N/C(=N\OC(=O)c1cc(-c2ccccc2)nc2ccccc12)c1cccnc1	i	-20	7	-1	0	12	-9	9
O=C(COc1ccccc1)N1CCN(c2nnc(-c3ccccc3)c3ccccc23)CC1	i	-5	-6	-4	-10	19	1	0
O=C(CN(c1ccc(Cl)cc1)S(=O)(=O)c1ccc(Cl)c([N+](=O)[O-])c1)NCCc1ccccc1	i	-7	58	2	-7	13	.	0
O=C1CCC(=O)N1CCSC(=S)N1CCOCC1	i	-11	-8	-1	2	-16	.	-14
COCc1cc(=O)[nH]c2c1c(-c1ccccc1)nn2C	i	11	-13	5	0	16	-15	1
COc1ccccc1C(=O)NCC(=O)N/N=C/c1cc(Br)ccc1OCc1ccccc1	i	0	1	6	-3	6	.	-7
O=C(CNC(=O)c1cccs1)c1ccc(Cl)cc1	i	-2	6	3	2	-34	-43	-7
O=C(NC1CCCCC1)C(c1cccnc1)N(C(=O)c1csnn1)C1CCCC1 (configuration not stated)	i	-1	-15	-1	0	-73	-15	6
CC(C)(Oc1ccc(Cl)cc1)C(=O)O	i	.	-10	1	3	-16	7	.

Filtered by structure: the entries above containing fluorine
SMILES	Rce1 inh	PABP polyA inh	CSC inhib	MT1-MMP act inh	MT1-MMP act inh RFP	HIV Env fusion	UUG fidelity	eIF4H FP inh
COc1ccccc1NS(=O)(=O)c1cc(NC(=O)c2cc(F)c(F)c(F)c2F)ccc1N1CCOCC1	.	.	5	2	-2	-4	.	.
O=C(O)CCCn1cc(NC(=O)COc2ccc(F)cc2)cn1	i	10	.	0	1	2	-16	-5
Cc1csc(N2CCCC2c2nc3cc(C(F)(F)F)ccc3n2CCOCCO)n1 (configuration not stated)	i	.	-6	-5	2	-2	6	.
CCOC(=O)C(NC(C)=O)(N1CCOCC1)C(F)(F)F (configuration not stated)	i	3	3	.	.	.	.	1
COC(=O)[C@H](C)NC(=O)Nc1cccc(C(F)(F)F)c1	i	-7	.	-1	-2	.	-10	1
CN(CC(=O)Nc1cccc(F)c1)C(=O)CCNC(=O)c1ccco1	i	.	.	4	6	-8	.	.
COc1ccc(Oc2nc(C(F)(F)F)nc3ccccc23)cc1	i	6	4	4	-7	.	.	-13
COc1ccc(N2CC(C(=O)Nc3ccc(F)cc3F)CC2=O)cc1 (configuration not stated)	i	-4	-14	2	-4	.	2	-12
CCCCN(C=O)c1c(CC)nc2c(OCc3ccc(C(F)(F)F)cc3)cccn12	.	.	.	-6	-14	-2	-18	.
O=Cc1ccc(-c2ccc(F)cc2)o1	i	20	-3	-1	-3	-7	6	4
CCSc1nnc(NC(=O)CCNS(=O)(=O)c2ccccc2F)s1	i	-7	-4	1	1	1	-12	-10

Quoted from the listing.
Entry for `O=C(CNC(=O)c1cccs1)c1ccc(Cl)cc1` in HIV Env fusion: -34
Entry for `COCc1cc(=O)[nH]c2c1c(-c1ccccc1)nn2C` in MT1-MMP act inh: 5
Entry for `O=C1CCC(=O)N1CCSC(=S)N1CCOCC1` in MT1-MMP act inh: -1

High-throughput results from PubChem.
